# gsp antag = antagonists of gsp mutant (McCune-Albright syndrome) | gsp-mutant cells, cAMP HTRF, 30 min; control for the full effect not named in the record | Potency, µM (top dose mostly 76.9 µM), for the others: top-dose activity change, negative = inhibition, usual class: inhibitors | actives 0.4% (n = 340,000) | AID 624288; active = falling curve of any shape with a large fitted effect; inconclusive = falling curve, mostly with a smaller effect; inactive = flat or rising curve; cell line not stated here;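 further: intracellular cAMP measured with PDE inhibitor Ro 20-1724 present during compound exposure; potency means the concentration at half of the fitted maximal effect; on the % scale 0 is the no-effect control and ±100 the full control effect; nearly all actives have a fitted effect of over 65% in size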
#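 Cells in G418 medium, seeded 16-24 h, 37C; buffer exchange to DPBS + 1 mM CaCl2, 0.5 mM MgCl2, 0.05% BSA; cpds in DMSO + […] (300 uM stock), 30 min 37C; HTRF cAMP detection.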
# TRPV1 PAM = enhances activation of the human vanilloid receptor TRPV1. Q8NER1. TRPV1-expressing cells, Fluo-8 calcium influx, capsaicin EC20 potentiation; host cell line not named in the record; control for the full effect not named in the record. potentiation, % at 8.33 µM. actives 0.02% (n = 320,000). AID 540277; active means potentiation above 80%; inconclusive means 30% to 80%; inactive means below 30%; further: 0% is about no effect
# Target sequence (Q8NER1 whole entry, looked up): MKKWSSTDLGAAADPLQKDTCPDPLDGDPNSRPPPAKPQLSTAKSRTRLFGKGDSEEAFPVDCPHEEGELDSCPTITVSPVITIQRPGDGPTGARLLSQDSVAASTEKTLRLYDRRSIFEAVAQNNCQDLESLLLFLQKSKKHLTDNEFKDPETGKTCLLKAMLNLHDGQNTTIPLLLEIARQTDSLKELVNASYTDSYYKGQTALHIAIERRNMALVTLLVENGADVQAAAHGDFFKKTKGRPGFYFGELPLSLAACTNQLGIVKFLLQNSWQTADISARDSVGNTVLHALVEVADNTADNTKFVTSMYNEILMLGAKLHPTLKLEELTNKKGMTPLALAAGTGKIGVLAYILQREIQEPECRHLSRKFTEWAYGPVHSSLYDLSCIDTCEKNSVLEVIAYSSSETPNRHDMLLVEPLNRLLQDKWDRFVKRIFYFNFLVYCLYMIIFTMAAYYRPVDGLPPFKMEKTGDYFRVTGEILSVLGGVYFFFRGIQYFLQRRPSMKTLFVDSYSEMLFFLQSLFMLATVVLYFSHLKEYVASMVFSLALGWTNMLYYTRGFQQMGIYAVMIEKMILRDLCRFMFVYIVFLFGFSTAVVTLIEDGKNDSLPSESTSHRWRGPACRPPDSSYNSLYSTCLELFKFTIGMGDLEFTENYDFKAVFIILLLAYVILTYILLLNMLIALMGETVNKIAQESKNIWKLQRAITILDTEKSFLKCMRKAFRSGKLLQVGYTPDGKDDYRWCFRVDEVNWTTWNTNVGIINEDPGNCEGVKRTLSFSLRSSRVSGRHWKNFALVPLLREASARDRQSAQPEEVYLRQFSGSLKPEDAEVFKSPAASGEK
#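 TRPV1-expressing cells were cultured overnight at 35.5C and loaded with Fluo-8 calcium dye for 40 to 90 min at room temperature. After a 10 s baseline, compound was added and calcium influx was read kinetically for 3 min (ex 480/em 520 nm).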
# gsp agonist = agonists of gsp mutant (McCune-Albright syndrome); gsp mutant cells, cAMP HTRF, 30 min; control for the full effect not named in the record; Potency, µM (doses to about 76.9 µM), without a hit: at the highest dose activation (cAMP increase), most hits filed as activators; actives 0.13% (n = 340,000); AID 624287; active = well fitted activation curve with a large enough effect; inconclusive = small, poorly fitted or top-dose-only effect, or another doubt; inactive = no such curve, though single readings can be large or run the other way; cell line not stated here;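 further: phosphodiesterase inhibitor Ro 20-1724 added with compounds to block cAMP breakdown; potency means the concentration at half of the fitted maximal effect; nearly all actives have a fitted effect of over 60% in size; about a fifth of the inactives were tested at one dose only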
#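 Cells in DMEM/10% FBS with G418 were pretreated with compounds in DMSO plus […] (300 uM stock) for 30 min at 37C. cAMP was measured by HTRF (cAMP-d2 plus anti-cAMP antibody-K) after 30 min at room temperature.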
# Menin MLL FP FL = inhibitors of human menin-MLL interaction, wild-type MLL peptide; FP activity change, % at 61.4 µM; Fluorescence polarization, fluorescein-MLL peptide displacement from menin; 290,000 tested, under 10 active; AID 1766; inconclusive = falling polarisation curve, or a change in total fluorescence; inactive = total fluorescence flat and polarisation flat or rising; no compound was filed as active; the % refers to the polarisation; negative = inhibition;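 further: % of control where 0% means no effect; inhibitors lower the polarisation; unlabelled MLL peptide was the positive control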
# ClpP mod = qHTS Assay for Activators of ClpP | ATP-dependent Clp protease proteolytic subunit (Bacillus subtilis (strain 168)), P80244 | purified B. subtilis ClpP, FRET peptide cleavage, 20 min | Potency, µM (titrated, usually from 57.5 µM), without a hit: at the top dose activity change, negative = active | actives 1.9% (n = 340,000) | AID 651965, 2013; active = well fitted falling curve with a large enough effect; inconclusive = small, poorly fitted or top-dose-only effect; inactive = no such curve, though single readings can be large or run the other way; further: potency means the concentration at half of the fitted maximal effect; the source files actives as falling curves though it sought activators and does not explain the sign; nearly all actives have a fitted effect of over 65% in size; many hits overshoot -100%
# Target sequence (P80244 whole entry, looked up): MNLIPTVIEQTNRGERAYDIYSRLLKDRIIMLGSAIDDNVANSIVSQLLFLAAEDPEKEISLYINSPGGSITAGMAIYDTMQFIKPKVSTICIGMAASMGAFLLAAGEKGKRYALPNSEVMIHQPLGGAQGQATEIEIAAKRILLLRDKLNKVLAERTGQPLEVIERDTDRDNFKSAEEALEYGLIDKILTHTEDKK
#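 FRET quenching reversal measured ClpP activation: 10 microg/mL B. subtilis ClpP at pH 8 with the FRET-FV decapeptide, read at 430 nm after 320 nm excitation. The 20-min minus 0-min signal was scaled between DMSO/no-enzyme wells and ADEP (5.8 microM final).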
# CtBP-E1A blk = CtBP/E1A binding inhibition; activity change, % (concentration not given with the values); AID 651724; AlphaScreen GST-E1A/His-CtBP binding, 1536-well; hits give low values; control for the full effect not named in the record; actives 0.49% (n = 340,000); in the data active means activity change below about -65%; inconclusive means about -30% to -65%; inactive means above about -30%; further: on the % scale 0 is the no-effect control and ±100 the full control effect
#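 Steps: dispense buffer (Tris pH 8.0, NaCl 300 mM, TCEP 1 mM, BSA, Tween 20); add 5X protein mix (GST-E1A, His-CtBP, 125 nM each); pin 23 nL compound; 2 h at 37 °C, dark; add 5X beads (50 ug/mL); 1 h; read.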
# Sfp inh = blocks B. subtilis Sfp PPTase activity; Biochemical Sfp PPTase activity, qHTS; actives 3.5% (n = 310,000); AID 1490; Potency, µM, without a hit: max response, negative = inhibition, most hits filed as inhibitors; active means well fitted inhibition curve with a large enough effect; inconclusive means small, poorly fitted or top-dose-only effect, or another doubt; inactive means no such curve, though single readings can be large or run the other way;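 further: the enzyme is Sfp with the accession as filed and its product quenches rhodamine fluorescence; potency means the concentration at half of the fitted maximal effect; 0% = enzyme reaction without inhibitor and -100% = no enzyme wells; top concentration of the series not given in the record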
#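 Step 1, compound plus 15 nM Sfp-PPTase, 15 min, room temperature. Step 2, add rhodamine-CoA (5 uM) and BHQ-2-YbbR (12.5 uM). Step 3, read 525/598 nm fluorescence at 0 and 30 min.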
# The depositor's hits bear a star; ? = inconclusive; . = no result given; & = joins results of further samples; [ ] = dose if it differs, or a comment.
Molecule	gsp antag	TRPV1 PAM	gsp agonist	Menin MLL FP FL	ClpP mod	CtBP-E1A blk	Sfp inh
CCOC(=O)N1CCN(c2cc(=O)n(-c3cccc(C)c3)c(=O)[nH]2)CC1	14.0%	11.8	-8.6%	3.6	.	-5.6	5.8%
COc1ccc(S(=O)(=O)N(Cc2cc3ccc(OC)cc3[nH]c2=O)CC2COCCO2)cc1 (stereo not drawn)	-11.6%[15.4 µM]	12.4	-13.6%	5.7	42.3%	-1.0	0.9%
COc1ccc(Nc2nc(-c3ccc(OC)cc3)cs2)cc1	5.1%	8.3	16.2%	10.0	0.7%	8.8	-6.1%
c1ccc(-c2ccc(CN3C[C@@H]4C(c5ccccc5)C5(c6ccccc6)CC4(C5)[C@H]3c3ccccc3)cc2)cc1 (stereo partly drawn)	4.9%	-9.5	.	?	-1.9%	4.5	22.1%&-8.1%
COc1cccc(Nc2nc(C)cc(C)c2C#N)c1	2.7%	14.8	7.8%	0.1	?	5.9	10.1%
COc1ccc(/C=N/NC(=O)C[n+]2ccccc2)c(OC)c1	7.3%	-1.3	-8.2%	-2.7	7.6%	12.9	23.8%
O=C(O)CC(c1ccc(Cl)cc1)N1C(=O)CCC1=O (stereo not drawn)	14.8%	-13.2	-11.5%	3.2	1.0%	-1.4	20.9%
Cc1nn2c(=O)cc(CSc3nc4ccccc4[nH]3)nc2s1	-3.5%	-4.6	-36.6%[inhibitor]	-1.0	0.6%	-4.1	-1.3%
O=C(NNc1nc2cc3c(cc2s1)OCO3)c1ccccc1	-0.2%	24.7	-52.1%[inhibitor]	3.9	0.9%	5.5	?
COc1ccc(C2=NO[C@@H]3C(=O)N(c4ccc(C)cc4C)C(=O)[C@H]23)cc1OC	-14.3%	-4.4	-17.0%	0.5	11.3%	5.6	?
CC(C)[C@H](NC(=O)c1ccccc1)C(=O)NCCc1ccccc1	-2.3%	-16.7	-4.2%[15.4 µM]	5.5	.	0.5	2.0%
Nc1nnc(SCCN2C(=O)c3ccccc3S2(=O)=O)s1	-6.3%	-29.5	-21.7%	4.1	-1.1%	4.9	1.7%
CCCCCCCCCCCCCCCC[n+]1ccc(/C=N/O)cc1	11.0%	18.1	-53.6%[inhibitor]	29.4	1.7%	-16.2	31.6µM*
CC(C)(C)NC(=O)Nc1ccc2nccnc2c1	6.8%	-2.6	5.6%	1.6	20µM*	-4.9	-9.0%
Cc1onc(-c2ccc(Cl)cc2Cl)c1-c1csc(N/N=C/c2ccccc2)n1	-0.7%	25.7	0.4%[15.4 µM]	2.1	-1.6%	-4.8	12.3%
COc1cccc(C(=O)N2c3ccccc3Sc3ccccc32)c1	-21.9%	3.8	-7.7%[15.4 µM]	3.9	1.3%	14.1	4.9%
COc1ccccc1N1CCN(C(=O)c2cc3c(=O)n(C)c4ccccc4c3n2C)CC1	9.8%	.	?	8.8	-4.0%	-0.4	5.3%
CC(C)CCn1c(SCC(=O)N2CC(=O)Nc3ccccc32)nc2scc(-c3cccs3)c2c1=O	-19.9%	13.6	-5.1%	1.5	-1.0%	-0.6	-9.7%
CCOc1ccc(S(=O)(=O)N2CCC(C(=O)NCC(=O)Nc3cccc(Cl)c3C)CC2)cc1	-11.9%	19.1	11.0%	.	0.5%	0.8	.
CN(C)/C=N/c1ncnc2c1cnn2-c1ccc(C(F)(F)F)cn1	7.1%	-0.3	-15.6%	0.2	2.8%	-11.8	-2.8%
Fc1ccc(OCCOCCN2CCNCC2)cc1	9.9%	28.9	-0.2%[15.4 µM]	0.9	0.0%	0.5	-4.0%
COC(=O)c1ccccc1-n1c(CCC(=O)O)ccc1-c1ccc(F)cc1	-15.4%	-1.1	-84.0%[inhibitor]	9.2	-6.5%	.	-1.4%
COc1ccccc1/C=C/C(=O)Nc1cccnc1	3.3%	-26.4	-29.8%[15.4 µM]	-1.6	-2.0%	-7.7	?
C/C(=N\Nc1nc(N2CCOCC2)nc(N2CCOCC2)n1)c1ccc([N+](=O)[O-])cc1	2.2%	-2.5	-0.6%[15.4 µM]	0.1	.	.	-1.8%
C[C@@H]1CN([C@@H](C)CO)C(=O)CCCn2cc(nn2)CO[C@H]1CN(C)S(=O)(=O)c1ccc(-c2ccccc2)cc1	.	.	-52.5%[inhibitor]	.	0.6%	6.2	.
COc1cc(NC(=O)CSc2nc3[nH]ncc3c(=O)n2-c2ccc(Cl)cc2)cc(OC)c1	?	-11.4	-7.5%	-0.3	0.5%	-2.6	18.2%
Cc1ccc(NCc2ccccc2)cc1	-27.8%	23.4	-6.8%[15.4 µM]	0.2	.	-1.9	15.0%
CCC[C@@H]1Cc2ccccc2N1C(C)=O	1.0%	-0.1	11.3%	.	-1.9%	6.6	.
Cc1cc2c(=O)n(C)c(SCC(=O)Nc3cccc(O)c3)nc2s1	-1.8%	-12.5	-2.8%	0.3	.	-19.0	1.9%
COc1cc([N+](=O)[O-])ccc1NC(=O)CCCOc1ccc(C)cc1	9.0%	-15.6	-31.1%[inhibitor]	-0.3	0.4%	-5.2	-15.9%
CCOc1ccc(C(=O)Nc2ccc3nc(N4CCN(CC)CC4)cc(C)c3c2)cc1	11.9%	1.0	-6.3%[15.4 µM]	-0.8	.	-3.2	6.3%
CCc1nc(NCCc2ccccn2)c2nnn(Cc3ccccc3F)c2n1	-5.3%	-1.9	5.8%	2.1	1.5%	-1.2	8.9%
Cc1cc(C)c(C#N)c(Nc2ccccc2C)n1	-5.8%	14.5	-48.9%[inhibitor]	-2.0	.	16.8	-2.7%
COc1cc(CO)ccc1OCc1nnnn1-c1ccc(C)cc1	0.9%	-8.9	-30.4%[inhibitor]	-0.2	0.0%	-2.0	13.8%
COc1cc(C(=O)OCC(=O)Nc2ccc(OC(F)F)cc2)cc(OC)c1OC	-4.4%	2.9	-9.6%[15.4 µM]	0.3	.	-7.8	19.8%
CCOC(=O)c1c(NC(=O)c2cccs2)sc(C)c1CC	-0.9%	-5.0	18.3%	6.6	?	141.7	-11.8%
COc1ccc(CCNC(=O)c2ccccc2NS(=O)(=O)c2cc(C(=O)O)ccc2OC)cc1	-0.7%	-0.2	?	0.3	.	1.7	17.5%
Cc1nc2c(c(=O)n1CCC(C)C)c1nc3ccccc3nc1n2CC1CCCO1 (stereo not drawn)	-18.6%	.	-6.2%	2.8	.	0.0	10.5%
CCOc1cc(C=O)ccc1OCCSc1ccc(C)cc1	-5.7%	7.7	-42.2%	-1.5	-1.7%	12.5	-19.5%
O=C(CNCC1(N2CCOCC2)CCCCC1)Nc1ccc(Cl)cc1	-0.3%	-0.5	-9.9%[15.4 µM]	2.0	.	-7.5	20.0%
O=C(O)CC(CC(=O)O)(C(=O)O)c1ccccc1	9.4%	0.2	-4.4%[15.4 µM]	1.7	.	10.4	17.9%
COc1cc(NC(=O)c2cc(-c3cccs3)on2)cc(OC)c1OC	6.0%	8.1	-50.3%[inhibitor]	-0.9	1.3%	-17.3	-15.6%
Cc1ccc(C2C3=C(CCCC3=O)OC3=C2C(=O)CCC3)cc1	-0.1%	2.3	5.5%	3.0	-6.2%	-5.0	19.1%
Cc1ccc(C(=O)CSc2nnc(COc3cc(C)cc(C)c3)o2)cc1	?	-4.2	25.4%	-0.3	-4.3%	-5.2	7.5%
Cc1[nH]c(C)c(S(=O)(=O)NCCc2ccc(S(N)(=O)=O)cc2)c1C(=O)N1CCCC1	6.0%	7.6	1.2%	.	-1.1%	1.8	10.6%
CCN1CCN(C(=O)C2CCN(S(=O)(=O)c3cccc4cccnc34)CC2)CC1	6.6%	.	16.8%	2.1	-0.6%	-2.3	3.9%
CC(C(=O)Nc1ccccc1Cl)c1ccc([N+](=O)[O-])cc1 (stereo not drawn)	6.6%	-8.3	0.6%[15.4 µM]	0.1	.	-0.8	1.9%
Cc1nn(-c2ccc(F)cc2)c(N)c1C1(O)C(=O)Nc2ccccc21 (stereo not drawn)	0.6%	2.7	-51.5%	1.5	0.2%	0.3	22.7%
COc1ccc(-c2csc(NC(C)c3nc4cc(C(F)(F)F)ccc4n3CCOCCO)n2)cc1 (stereo not drawn)	-10.4%	.	.	.	-1.9%	-4.1	.
COc1ccc(-n2c(=O)[nH]c3cc(C(=O)NCCc4ccc(Cl)cc4)ccc3c2=O)cc1OC	-15.9%	30.0	9.4%	4.8	?	.	7.1%
COc1ccc(C(C(=O)NC(C)(C)C)N(Cc2ccco2)C(=O)CCC(=O)Nc2ccccn2)cc1 (stereo not drawn)	4.7%	-1.7	-16.2%	0.0	.	0.0	0.9%
COc1ccc(S(=O)(=O)N2CCOCC2)cc1NC(=O)Cc1cccs1	6.1%	-5.1	-12.8%	.	-2.6%	2.3	.
O=C(COc1ccccc1)NNC1=NS(=O)(=O)c2ccccc21	5.2%	6.9	-0.1%[15.4 µM]	0.1	.	-1.3	5.6%
Cc1ccc(S(=O)(=O)N2CCOCC2)cc1C(=O)OCC(=O)c1c(N)n(C)c(=O)n(C)c1=O	9.2%	.	1.1%	.	0.4%	?	.
COc1ccc(NC(=O)N(C)C[C@H]2Oc3ccc(NC(=O)CCC(F)(F)F)cc3C(=O)N([C@H](C)CO)C[C@@H]2C)cc1	6.8%	.	.	.	-0.1%	1.1	.
O=C(NC1CCN(Cc2ccc(Cl)c(Cl)c2)CC1)c1ccccc1	4.5%	-2.6	-9.0%	-2.0	-0.3%	3.9	18.0%
COc1ccc(C2=NO[C@@H]3C(=O)N(c4ccc5c(c4)OCCO5)C(=O)[C@H]23)cc1OC	8.8%	-0.8	22.2%	5.0	-0.8%	3.2	11.8%
CCn1c(=S)[nH]c2sc3c(c2c1=O)CCCC3	-8.1%	-5.4	?	4.8	-4.1%	.	1.9%
CCOC(=O)c1ccc(NC(=O)c2cc(C)nn2-c2ccccc2)cc1	-17.6%	-1.2	-56.7%[inhibitor]	-5.2	-2.3%	5.3	2.9%
O=C(COc1ncnc2ccccc12)NCCC1=CCCCC1	4.0%	-9.7	?	-0.4	-5.7%	-1.5	13.7%

# Assay outcomes: PubChem, National Center for Advancing Translational Sciences (NCATS)
